Source: PubChem
GALR2 ag – GALR2 receptor agonists, primary screen, cell-based; activation, %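 (tested at 5 µM)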; 0.48% of 140,000 active; GALR2-expressing cells, agonist activation read-out; Galanin receptor type 2 (Homo sapiens), O43603;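 active = above mean plus 3 SD of all compounds, about 5% in these data, not always enough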;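 also: 0% = vehicle buffer wells and 100% = reference agonist at full effect; tested in CHO reporter cells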
INS promoter inh – inhibitors of insulin promoter-driven GFP, primary screen, imaging, TRM-6 cells (human fetal islet line), eGFP reporter, cell count. 0.9% of 130,000 active. inhibition, % at 2 µM. reporter expression induced with tamoxifen;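 active = inhibition above the mean plus 3 SD, with well images judged a real hit on visual review, cut at about 60% in these data, passing the limit was not always enough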
RGS16-Gao HTS – modulators of RGS16 binding to Galphao, primary screen, biochemical, human proteins, multiplexed bead flow cytometry. AID 1441, 2008. Regulator of G-protein signaling 16 (Homo sapiens) + Guanine nucleotide-binding protein …. binding response (% of control), % at 10 µM. 0.38% of 220,000 active. bead-based flow cytometry RGS16-Galphao binding, fluorescence; actives lie on both sides;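 active = below 25% or above 175%, edge rows of some plates excepted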;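 also: Galphao activated by GDP with aluminum fluoride before binding; 100% = wells without compound and 0% = beads without RGS; some results beyond the cut were filed as inactive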
PKD1 inh – inhibitors of human PKD1 kinase, biochemical, fluorescence polarization; inhibition, %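 (about 10 µM by stock and volumes)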; Serine/threonine-protein kinase D1 (Homo sapiens), Q15139; 0.056% of 200,000 active; PKD1 kinase fluorescence polarization assay;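 active = inhibition of 50% or more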;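 also: controls were vehicle for no effect and a reference inhibitor for full effect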
Target sequence (Q15139 whole entry, looked up): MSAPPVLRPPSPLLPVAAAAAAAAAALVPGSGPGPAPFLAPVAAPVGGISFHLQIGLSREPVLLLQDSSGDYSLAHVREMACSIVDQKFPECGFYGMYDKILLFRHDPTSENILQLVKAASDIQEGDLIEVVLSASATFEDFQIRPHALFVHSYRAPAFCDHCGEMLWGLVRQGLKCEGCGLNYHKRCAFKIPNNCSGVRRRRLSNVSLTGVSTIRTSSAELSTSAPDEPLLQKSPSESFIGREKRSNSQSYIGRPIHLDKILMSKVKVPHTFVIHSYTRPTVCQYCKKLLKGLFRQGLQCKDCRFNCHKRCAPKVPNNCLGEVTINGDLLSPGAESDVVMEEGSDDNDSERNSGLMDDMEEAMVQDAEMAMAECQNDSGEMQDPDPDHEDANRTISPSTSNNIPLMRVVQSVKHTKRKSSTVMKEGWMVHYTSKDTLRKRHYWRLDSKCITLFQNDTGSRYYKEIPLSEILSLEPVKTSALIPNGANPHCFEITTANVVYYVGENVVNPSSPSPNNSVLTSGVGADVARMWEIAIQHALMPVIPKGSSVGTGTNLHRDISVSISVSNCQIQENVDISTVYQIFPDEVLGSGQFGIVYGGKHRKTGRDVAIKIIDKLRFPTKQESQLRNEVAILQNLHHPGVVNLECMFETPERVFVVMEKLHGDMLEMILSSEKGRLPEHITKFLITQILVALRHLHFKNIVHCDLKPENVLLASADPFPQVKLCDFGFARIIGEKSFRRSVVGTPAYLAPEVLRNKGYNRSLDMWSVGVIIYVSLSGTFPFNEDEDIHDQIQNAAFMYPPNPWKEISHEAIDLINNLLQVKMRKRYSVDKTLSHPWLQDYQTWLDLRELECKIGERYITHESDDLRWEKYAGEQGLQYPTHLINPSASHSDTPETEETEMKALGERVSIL
HSV replic up – enhancers of HSV replication in host cells, fold increase, host cell viability; AID 1956, 2009; 0.005% of 220,000 active; maximum fold increase; HSV replication augmentation in cells;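 active = peak rise of 1.5-fold or more in the series; tested in PC3 cells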;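 also: first round at 10 µM; read as green reporter fluorescence; hits show the peak of a series up to 25 µM; 1 = signal of infected wells without compound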
INS promoter inh cell count – further read-out of INS promoter inh, marked with its call; normalized cell count, %; measured here: cell count, toxicity; reference of the scale not given here;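 cells exposed to compound for 48 h; stained nuclei by imaging scaled within each plate; lower means fewer cells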
HSV replic up primary fold – further read-out of HSV replic up, marked with its call; fold increase; compound at 10 µM; measured here: primary screen fold increase 10 uM; tested in PC3 cells;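 GFP signal in the first replicate; 1 = infected wells without compound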
* = called active by the depositor; i = inactive; · = no result given.

SMILES | GALR2 ag | INS promoter inh | INS promoter inh cell count | RGS16-Gao HTS | PKD1 inh | HSV replic up | HSV replic up primary fold
CCCCCNC(=O)CSC1=N/C(=C\c2ccc(Cl)c(Cl)c2)C(=O)N1CC | -0.6 | · | · | 200 | 2 | i | 1.1
Cc1c(Br)c([N+](=O)[O-])nn1CC(=O)N1CCc2ccccc2C1 | -0.5 | 10 | 104 | 24* | -2 | i | 0.9
Cc1ccc(Cn2c(SCCN3CCOCC3)nc3c2c(=O)n(C)c(=O)n3C)cc1 | -0.3 | 45 | 108 | 115 | -9 | i | 1
Cc1noc(C)c1C(=O)N1CCCC(C(=O)c2cccc(OC(C)C)c2)C1 (stereo unspecified) | · | · | · | 112 | -2 | i | 0.96
CC(NS(=O)(=O)/C=C/c1ccccc1)C(=O)O (stereo unspecified) | · | 18 | 128 | 104 | -1 | i | 0.9
CN(C)CCn1c(C(=O)Nc2ccccc2)cc2ccccc21 | -1.9 | · | · | 101 | 4 | i | 0.86
Cc1ccc(S(=O)(=O)N2CCN(C(=O)CN3C(=O)NC4(CCOc5ccccc54)C3=O)CC2)cc1 (stereo unspecified) | -0.2 | -63 | 90 | 100 | -3 | i | 0.93
Cc1cc(C)nc(/N=C(/NC(=O)Nc2cccc(Cl)c2)Nc2ccccc2)n1 | -1.8 | -7 | 112 | 98 | 11 | i | 0.82
CC1CCN(C(=O)CCCOc2ccc(Cl)cc2)CC1 | -2.4 | -12 | 87 | · | 4 | i | 0.85
CCc1ccc(N(CC(=O)NC)S(C)(=O)=O)cc1 | -3.6 | 38 | 171 | 99 | 1 | i | 0.91
Cc1ccc(Cl)cc1NC(=O)N(C)CCO | · | · | · | 107 | · | i | 0.94
COc1ccc(-c2cc3nc(C)c(CCC(=O)NC(C)CCc4ccco4)c(C)n3n2)c(OC)c1 (stereo unspecified) | -2.8 | -45 | 95 | 99 | 0 | i | 0.91
O=[N+]([O-])c1cc(/C=N/O)ccc1Oc1ccccc1Cl | · | 27 | 110 | 102 | -6 | i | 0.91
O=C(CCn1c2c(c3ccccc31)CCCC2)NNC(=O)c1cccc([N+](=O)[O-])c1 | -1.9 | -9 | 65 | 100 | -4 | i | 1
C[N+]1=C(/C=C/Nc2ccccc2Cl)C(C)(C)c2ccccc21 | -0.4 | -59 | 97 | 114 | -8 | · | ·
CCC(=O)NC(=S)Nc1c(C)cc(Br)cc1C | · | · | · | 104 | 2 | i | 0.94
CCN(CC)S(=O)(=O)c1ccc(N2CCOCC2)c(C(=O)O)c1 | -1.0 | -17 | 132 | 101 | -3 | i | 1.1
O=C(CCCc1c[nH]c2ccccc12)N1CCN(S(=O)(=O)c2cccs2)CC1 | -1.9 | -19 | 123 | 104 | -2 | i | 0.72
CCc1ccc(NC(=O)C(=O)NCCOc2ccccc2Cl)cc1 | · | · | · | 101 | 2 | i | 0.91
Cc1cc(F)ccc1N1CCC(N2CCN(C(C)C)C(CCO)C2)CC1 (stereo unspecified) | · | · | · | 92 | -4 | i | 0.88
COc1cc2c(cc1NC(=O)CSc1ccc(Cl)cc1)oc1ccccc12 | -1.4 | 12 | 106 | 113 | -1 | i | 0.9
CCOC(=O)c1cc(-c2ccccc2)n(CC(=O)O)c1C | -0.6 | 38 | 94 | 109 | -5 | i | 0.93
O=C(CN1CCN(S(=O)(=O)c2ccc(F)cc2)CC1)Nc1ccc2c(c1)OCO2 | -2.4 | -16 | 85 | 141 | -4 | i | 0.94
COc1cc(OC)cc(C(=O)n2nc(C)cc2C)c1 | -2.0 | 69 | 114 | 103 | -8 | i | 0.93
COc1cc(CCC(=O)OCC(=O)Nc2ccc(C(N)=O)cc2)cc(OC)c1OC | · | · | · | 98 | -3 | i | 1
Cc1ccc(N(C)S(=O)(=O)c2cccc(C(=O)Nc3nc4ccccc4[nH]3)c2)cc1 | -0.9 | 12 | 111 | 104 | -3 | i | 0.81
C=C(C)C(=O)Nc1cccnc1Oc1ccc(F)cc1F | · | · | · | 101 | · | i | 1.1
O=C(CCc1nnc(-c2ccc3c(c2)OCO3)o1)NC(c1ccccn1)C(F)(F)F (stereo unspecified) | · | · | · | 98 | -7 | i | 1.1
Cc1ccc(S(=O)(=O)N2CCCCC2)cc1NC(=O)COC(=O)c1c(F)cccc1F | · | · | · | 99 | -4 | i | 1.1
O=C(CN1CCCCC1)Nc1ccc(NC(=O)c2ccc(Cl)cc2)cc1Cl | -2.4 | -27 | 56 | 106 | -9 | i | 0.65
Cc1ccc(NC(=O)CN(c2ccc(Cl)cc2)S(=O)(=O)c2cc([N+](=O)[O-])ccc2Cl)c(C)c1 | · | 39 | 80 | 97 | 5 | i | 0.87
COc1ccc(C(=O)NNC(=O)C(=O)NC(C)c2ccccc2)cc1OC (stereo unspecified) | · | -53 | 65 | 93 | -2 | i | 1
CCOc1ccc(Cc2nnc(SCC(=O)c3ccc(OC)cc3)o2)cc1 | -0.4 | 64 | 55 | 101 | -3 | i | 1.2
CC(NC(=O)c1ccc(Br)cc1)c1ccccc1 (stereo unspecified) | -1.0 | 21 | 124 | 109 | 3 | i | 0.98
Cc1ccccc1N1CCN(C(=O)c2ccccc2NC(=O)C2CC=CCC2C(=O)O)CC1 (stereo unspecified) | -4.1 | 3 | 183 | 99 | 2 | i | 1.1
Cc1ccc(C(=O)N(Cc2cccnc2)Cc2cc3cc(C)ccc3n3nnnc23)cc1 | · | -92 | 83 | 101 | 0 | i | 1
O=C(c1ccco1)N1CCN(C(=O)c2ccccc2NS(=O)(=O)c2ccc(F)cc2)CC1 | · | · | · | 98 | -3 | i | 1.1
Cc1noc(NS(=O)(=O)c2ccc(NC(=O)CCn3c(=O)oc4ccccc43)cc2)c1C | -1.1 | · | · | 101 | 6 | i | 0.75
Cn1c(=O)c2cc(NCc3ccccc3)nnc2n(C)c1=O | -1.1 | · | · | 100 | -3 | i | 0.98
CC1CCC(C(C)C)C(OC(=O)Cn2c(-c3ccc(Cl)cc3)[n+](C)c3ccccc32)C1 (stereo unspecified) | · | · | · | 103 | · | i | 0.66
Cc1c(C(N)=O)sc2ncn(CC(=O)N3CCC(C)CC3)c(=O)c12 | -1.8 | 1 | 89 | 95 | 2 | i | 1.1
Cc1c(C(=O)O)nnn1-c1ccccc1 | -1.9 | · | · | 101 | -1 | i | 1
COC(=O)c1cnn(-c2nc(OC)cc(OC)n2)c1C | -0.9 | 18 | 63 | 107 | 1 | i | 0.92
CC(C)C(=O)N1N=C2CCCCC2C1(O)C(F)(F)F (stereo unspecified) | · | 14 | 80 | 109 | -2 | i | 0.99
O=C(NNC(=O)C1CCCO1)c1ccccc1Cl (stereo unspecified) | -3.4 | -4 | 105 | · | -1 | i | 0.93
CN1N=C2c3ccccc3CCCC2C1c1ccc(F)cc1 (stereo unspecified) | · | · | · | 101 | · | i | 1.1
CC1CN(C2CCN(C(=O)c3ccccc3)CC2)CC(C)O1 (stereo unspecified) | -1.6 | 16 | 78 | 106 | 4 | i | 0.85
CSc1ccc(OC2CCN(Cc3ccccc3)CC2)cc1 | 0.2 | 23 | 123 | 30 | 13 | i | 0.86
O=C(COc1ccccc1)Nc1ncc2c(n1)CCCC2=O | -1.6 | -36 | 99 | 105 | 3 | i | 0.89
COc1ccc(Nc2nc3c(C)cccc3cc2C#N)c(OC)c1 | 0.1 | 8 | 75 | 107 | 11 | i | 0.97
O=C1CCCC(=O)C1CS(=O)(=O)c1ccccc1 | · | · | · | 97 | 1 | i | 0.97
COc1cc(C(=O)c2ccccc2Cl)c([N+](=O)[O-])cc1OC | · | · | · | 104 | -11 | i | 0.77
CC(C)c1ccc(C(=O)N2CCN(c3cnn(C)c(=O)c3Cl)CC2)cc1 | · | · | · | 106 | -4 | i | 0.96
O=C(Nc1c(C(=O)Nc2ccc3c(c2)OCCO3)cnn1-c1ccccc1Cl)c1ccco1 | -2.4 | -32 | 120 | 138 | -3 | i | 0.93
COc1cccc(C(=O)Nc2nnc(C(C)C)s2)c1 | -1.4 | -329 | 23 | 104 | -4 | i | 0.91
COc1ccc(C(CC(=O)O)NC(=O)c2ccco2)cc1OC (stereo unspecified) | -1.4 | -36 | 127 | 98 | -2 | i | 0.99
Cc1cccc(-n2cnc(C(=O)NNC(=S)Nc3ccc(Cl)cc3)c2)n1 | · | 7 | 81 | 97 | -12 | i | 1.1
Cc1noc(C)c1COc1cccc(C(=O)Nc2ccc3c(c2)OCO3)c1 | · | -25 | 108 | 101 | -3 | i | 0.83
O=c1cc(CN2CCN(C/C=C/c3ccccc3)CC2)c2cc(O)c(-c3ccccc3)cc2o1 | -0.2 | -136 | 91 | 106 | -3 | i | 0.74
COc1cc(/C=C/c2cc(OC(C)=O)c3ccccc3n2)c(OC(C)=O)c([N+](=O)[O-])c1 | -2.2 | · | · | 102 | -1 | i | 0.42

3 compounds drawn at random from those above, as already listed:
SMILES | GALR2 ag | INS promoter inh | INS promoter inh cell count | RGS16-Gao HTS | PKD1 inh | HSV replic up | HSV replic up primary fold
COc1ccc(C(CC(=O)O)NC(=O)c2ccco2)cc1OC (stereo unspecified) | -1.4 | -36 | 127 | 98 | -2 | i | 0.99
COc1ccc(Nc2nc3c(C)cccc3cc2C#N)c(OC)c1 | 0.1 | 8 | 75 | 107 | 11 | i | 0.97
O=C1CCCC(=O)C1CS(=O)(=O)c1ccccc1 | · | · | · | 97 | 1 | i | 0.97

Next entries.
SMILES | GALR2 ag | INS promoter inh | INS promoter inh cell count | RGS16-Gao HTS | PKD1 inh | HSV replic up | HSV replic up primary fold
Nc1c(N(CCO)C(=O)/C=C/c2ccco2)c(=O)[nH]c(=O)n1Cc1ccccc1 | · | -93 | 10 | 102 | 1 | · | ·
N/C(=N\c1nc2ccccc2o1)NC(=O)c1cccc(Br)c1 | · | · | · | 99 | · | i | 1.1
COC(=O)Cn1c(CCS(=O)(=O)c2ccc(C)cc2)nc2ccccc21 | 0.1 | 62 | 71 | 100 | -8 | i | 0.89
CSc1ccc(S(=O)(=O)NC2CCCCCC2)cc1 | -1.9 | 14 | 81 | 110 | 8 | i | 0.95
O=C(Cn1cnc2c(nnn2-c2ccccc2)c1=O)NCCc1ccccc1 | -0.7 | -100 | 140 | 92 | -8 | i | 0.84
CC1=NN(c2nc(-c3ccc(C)cc3)cs2)C(=O)C1N=Nc1cccc(C)c1 (stereo unspecified) | -1.0 | 17 | 78 | 164 | -4 | i | 0.97
Nc1cc(=O)[nH]c(SCC(=O)NC2CCCc3ccccc32)n1 (stereo unspecified) | · | · | · | 102 | · | i | 0.97
CCc1ccccc1N(C)S(=O)(=O)c1ccc2[nH]cc(C(=O)N3CCc4ccccc43)c(=O)c2c1 | -1.9 | 21 | 94 | 69 | -3 | i | 0.95

By substructure, the compounds so far containing an aryl methoxy group.
SMILES | GALR2 ag | INS promoter inh | INS promoter inh cell count | RGS16-Gao HTS | PKD1 inh | HSV replic up | HSV replic up primary fold
COc1ccc(-c2cc3nc(C)c(CCC(=O)NC(C)CCc4ccco4)c(C)n3n2)c(OC)c1 (stereo unspecified) | -2.8 | -45 | 95 | 99 | 0 | i | 0.91
COc1cc2c(cc1NC(=O)CSc1ccc(Cl)cc1)oc1ccccc12 | -1.4 | 12 | 106 | 113 | -1 | i | 0.9
COc1cc(OC)cc(C(=O)n2nc(C)cc2C)c1 | -2.0 | 69 | 114 | 103 | -8 | i | 0.93
COc1cc(CCC(=O)OCC(=O)Nc2ccc(C(N)=O)cc2)cc(OC)c1OC | · | · | · | 98 | -3 | i | 1
COc1ccc(C(=O)NNC(=O)C(=O)NC(C)c2ccccc2)cc1OC (stereo unspecified) | · | -53 | 65 | 93 | -2 | i | 1
CCOc1ccc(Cc2nnc(SCC(=O)c3ccc(OC)cc3)o2)cc1 | -0.4 | 64 | 55 | 101 | -3 | i | 1.2
COC(=O)c1cnn(-c2nc(OC)cc(OC)n2)c1C | -0.9 | 18 | 63 | 107 | 1 | i | 0.92
COc1ccc(Nc2nc3c(C)cccc3cc2C#N)c(OC)c1 | 0.1 | 8 | 75 | 107 | 11 | i | 0.97
COc1cc(C(=O)c2ccccc2Cl)c([N+](=O)[O-])cc1OC | · | · | · | 104 | -11 | i | 0.77
COc1cccc(C(=O)Nc2nnc(C(C)C)s2)c1 | -1.4 | -329 | 23 | 104 | -4 | i | 0.91
COc1ccc(C(CC(=O)O)NC(=O)c2ccco2)cc1OC (stereo unspecified) | -1.4 | -36 | 127 | 98 | -2 | i | 0.99
COc1cc(/C=C/c2cc(OC(C)=O)c3ccccc3n2)c(OC(C)=O)c([N+](=O)[O-])c1 | -2.2 | · | · | 102 | -1 | i | 0.42
